Six1-Eya2 blk: Six1/Eya2 interaction inhibition; activity change, % (concentration not given with the values); AlphaScreen GST-Six1/His-Eya2 binding, biochemical; stronger effect = lower value; control for the full effect not named in the record; 360,000 compounds, 0.56% hits; AID 651725; Q15475+O00167; in the data active = activity change below about -65%; inconclusive = about -30% to -65%; inactive = above about -30%; further: on the % scale 0 is the no-effect control and ±100 the full control effect
Target sequence (O00167 whole entry, looked up): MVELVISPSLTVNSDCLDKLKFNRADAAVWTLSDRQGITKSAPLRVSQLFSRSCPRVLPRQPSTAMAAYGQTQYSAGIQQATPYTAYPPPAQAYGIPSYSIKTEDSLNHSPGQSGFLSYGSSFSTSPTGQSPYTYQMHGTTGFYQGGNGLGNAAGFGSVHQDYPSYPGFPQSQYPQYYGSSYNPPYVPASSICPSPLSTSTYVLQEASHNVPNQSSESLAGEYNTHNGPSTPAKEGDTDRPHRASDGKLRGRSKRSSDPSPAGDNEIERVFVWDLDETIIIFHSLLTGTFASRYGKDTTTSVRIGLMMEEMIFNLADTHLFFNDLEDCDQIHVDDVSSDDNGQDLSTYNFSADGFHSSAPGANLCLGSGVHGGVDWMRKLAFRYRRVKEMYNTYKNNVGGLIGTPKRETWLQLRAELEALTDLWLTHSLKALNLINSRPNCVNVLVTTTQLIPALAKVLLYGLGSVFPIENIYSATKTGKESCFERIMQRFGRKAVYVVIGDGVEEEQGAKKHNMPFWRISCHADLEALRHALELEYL
Target sequence (Q15475 whole entry, looked up): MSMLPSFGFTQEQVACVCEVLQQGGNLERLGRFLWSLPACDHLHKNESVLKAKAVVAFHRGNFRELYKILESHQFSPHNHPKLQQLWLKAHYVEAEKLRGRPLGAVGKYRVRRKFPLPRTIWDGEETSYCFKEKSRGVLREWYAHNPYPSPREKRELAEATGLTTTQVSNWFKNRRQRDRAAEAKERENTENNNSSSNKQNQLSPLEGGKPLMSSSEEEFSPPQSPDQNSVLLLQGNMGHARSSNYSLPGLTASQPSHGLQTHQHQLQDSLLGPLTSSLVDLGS
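GST-Six1 + His-Eya2 (5X stock: 250/500 nM); Tris pH 8.0, 300 mM NaCl, 0.05% BSA, 0.02% Tween 20; GSH donor/Ni acceptor beads; 1 h 37 °C dark; AlphaScreen readout.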
PINK1 modulator: changes PINK1 expression; PINK1 immunofluorescence, high-content cytometry, 24 h; Potency, µM (doses to about 76.6 µM), for inactives: at the highest dose activation (PINK1 increase), actives largely listed as activators; 410,000 compounds, 0.2% hits; active = well fitted activation curve with a large enough effect; inconclusive = small, poorly fitted or top-dose-only effect; inactive = flat fitted curve, though single readings scatter; cell line not stated here;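 further: potency means the concentration at half of the fitted maximal effect; % of control where 0% means no effect; nearly all actives have a fitted effect of over 65% in size; a mitochondrial uncoupler was the plate control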
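Compound titrations (5 concentrations, 24 h) on a stable cell line; DMSO and CCCP controls. Endpoint: fixed-cell PINK1 immunofluorescence with mitochondrial, cell and nuclear markers, scanned by microplate cytometer.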
TRPML1 blocker: blocks the human TRPML1 channel; TRPML1-inducible cells, Ca2+ dye fluorescence, FDSS; stronger effect = lower value; inhibition of EC80 agonist-evoked calcium signal; 390,000 compounds, 0.02% hits; activity change, negative = inhibition, % (no concentration beside the values); Q9GZU1; AID 624415; in the data active means activity change below about -50%; inconclusive means about -30% to -50%; inactive means above about -30%;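 further: stimulus is agonist 54-4 at its EC80 concentration; on the % scale 0 is the no-effect control and ±100 the full control effect; compound concentration not given in the record; the text of the record puts the active cut at -80%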
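Tet-induced TRPML1-DL cells loaded with Ca8 no-wash calcium dye were read kinetically on FDSS. Compound addition was followed by EC80 agonist 54-4 (4 uM final); inhibition was read over 110 s.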
D2 agonist: human D2 receptor agonism in beta-arrestin assay. P14416. DiscoveRx PathHunter D2 beta-arrestin, luminescence, 90 min; 100% = 57 uM dopamine signal. activation, % (no concentration beside the values). 360,000 compounds, 0.084% hits. AID 624465; in the data active = activation above about 40%; inconclusive = about 15% to 40%; inactive = below about 15%; further: compound concentration not given in the record; the text of the record calls up to 30% inactive
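Agonist mode: compounds alone added to overnight-plated D2 PathHunter cells for 90 min at 37 C, with 57 uM final dopamine (EC100) defining full response. Beta-arrestin recruitment detected by chemiluminescent reagent, read after 1 h at ambient temperature.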
CtBP-E1A inh: blocks the CtBP interaction with E1A; activity change, % (concentration not given with the values); 340,000 compounds, 0.49% hits; AlphaScreen GST-E1A/His-CtBP binding, 1536-well; stronger effect = lower value; control for the full effect not named in the record; in the data active means activity change below about -65%; inconclusive means about -30% to -65%; inactive means above about -30%; further: on the % scale 0 is the no-effect control and ±100 the full control effect
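AlphaScreen with 125 nM GST-E1A and 125 nM His-CtBP (5X stocks) in Tris pH 8.0, 300 mM NaCl, BSA, Tween 20, TCEP. Compounds preincubated 2 h at 37 deg C, then glutathione donor/nickel acceptor beads added for 1 h at 37 deg C in dark.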
TRPML1 agonist: activates the human TRPML1 channel; Q9GZU1; TRPML1-expressing cells, Ca2+ dye fluorescence, FDSS; host cell line not named in the record; reference of the full effect not given here; activation, % (test concentration not listed); 410,000 compounds, 0.12% hits; AID 624414; in the data active = activation above about 50%; inconclusive = about 30% to 50%; inactive = below about 30%; further: 0% is about no effect; the text of the record puts the active cut at 80%
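Tetracycline-induced TRPML1-DL cells are seeded and incubated overnight before loading with a no-wash Ca2+ dye and quencher. Agonist activity is taken from the 110 s fluorescence read following compound pin-transfer on an FDSS, before EC80 54-4 challenge.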
An asterisk follows results filed as active; ? = inconclusive; · = no result given; [ ] = dose if it differs, or a comment.

Values run as follows: Six1-Eya2 blk	PINK1 modulator	TRPML1 blocker	D2 agonist	CtBP-E1A inh	TRPML1 agonist
Cc1cccc(NC(=O)CCN2CCN(C/C=C/c3ccccc3)CC2)c1
    -7	-1.0%	0	-3.4	-13	-0.3
COc1ccc(S(=O)(=O)N2CCOC2CNC(=O)C(=O)NCCN2CCOCC2)cc1C (stereo not given)
    1	-1.0%	13	0.7	4	1.7
CC(C(=O)NCCCn1ccnc1)(c1ccccc1)c1ccccc1
    -15	-0.6%	5	0.4	2	-1.4
COc1ccc(-c2ccoc2)cc1[C@H]1[C@H]2C=CC[C@@H](C)[C@@H]2C(=O)N1Cc1ccccc1
    -16	?	29	-5.1	?	0.6
Cc1cc(Nc2ccccc2)nn1C(=O)c1ccc(Cl)cc1
    6	0.0%	-2	0.6	-4	1.0
Cc1sc2nc(CN3CCCCC3)nc(Nc3ccc4c(c3)OCCO4)c2c1C
    14	-1.1%	21	-7.0	1	0.2
Cc1nc2ccccc2c2oc(C(=O)NCC3CCCO3)cc12 (stereo not given)
    -19	5.8%[38.3 µM]	3	-0.6	-29	-0.2
Cc1ccc2[nH]c(=O)c(CN(Cc3cccnc3)C(=O)c3ccncc3)cc2c1
    3	?	17	-0.4	2	0.0
CN(C(=O)Cc1c[nH]c2ccccc12)C(C(=O)Nc1ccc2c(c1)OCO2)c1ccccc1 (stereo not given)
    -23	-1.7%	-4	1.5	-4	0.4
COC(=O)Nc1nn(-c2ccc(OC)cc2)c(=O)c(C#N)c1C
    -3	1.4%	-2	-1.5	0	-0.7
CCOC(=O)c1c(NC(=O)CN2C(=O)NC(C)(c3ccc(OC(F)F)cc3)C2=O)sc(C)c1C (stereo not given)
    -4	0.1%	-4	0.5	0	8.3
Cc1ncc(CO)c(/C=N/Nc2ccc(C(F)(F)F)cn2)c1O
    -75*	0.5%	-11	-21	-96*	-0.5
Cc1ccc(-c2cn3cc([N+](=O)[O-])ccc3n2)cc1
    -3	0.2%	18	-3.9	-14	0.4
CCN(CC(=O)Nc1ccc(NC(C)=O)cc1)C(=O)c1ccc(Sc2nncn2C)c([N+](=O)[O-])c1
    2	1.4%	4	1.0	5	-0.2
O=c1c2sccc2nc(SCc2cc(=O)n3cc(Cl)ccc3n2)n1-c1ccc(F)cc1
    1	2.3%	0	3.9	2	-0.8
C[C@]12CCC(=O)C=C1CC[C@@H]1[C@@H]2[C@@H](O)C[C@]2(C=O)[C@@H](C(=O)CO)CC[C@@H]12
    7	-0.7%	0	-5.2	-4	0.1
Cc1ccc(C(=O)NC2CCS(=O)(=O)C2)cc1S(=O)(=O)N1CCCC1 (stereo not given)
    1	2.7%	0	-0.8	0	-0.3
O=c1c(Cc2c(F)cccc2Cl)c(O)ccn1C1CCCCCC1
    0	4.3%	1	-3.7	7	0.0
Nc1nonc1-n1nnc(C(=O)N/N=C/c2ccc(OCc3ccccc3)cc2)c1COc1ccc(F)cc1
    0	-1.5%	-14	-2.9	2	0.4
O=S(=O)(c1cccs1)N1CCC(CO)(Cc2cccc(F)c2)CC1
    1	-2.0%	13	-12	8	-0.6
CC(=O)Oc1ccc(C2=Cc3ccc(OC(C)=O)cc3OC2C)cc1 (stereo not given)
    -7	-2.9%	4	8.2	-6	0.4
CCN(CC)C(=O)[C@H]1C[C@H](CC(=O)NCc2ccco2)C(=O)N2CCc3c([nH]c4cc(-c5ccco5)ccc34)[C@]12C
    -15	1.2%	0	-1.1	-14	-0.5
CCn1c(N)c(C(=O)N2CCOCC2)sc1=S
    1	-2.2%	38	-4.3	4	-0.1
Cc1ccc(S(=O)(=O)Nc2ccccc2C(O)c2ccccc2)cc1 (stereo not given)
    -5	5.5%	-10	-3.4	-5	-0.2
CCOC(=O)c1ccc(NC(=O)CCNS(=O)(=O)c2cccs2)cc1
    -10	-1.2%	-2	1.4	-11	-0.3
CCOC1=C2[C@@H](CN(S(=O)(=O)c3ccc(C)cc3)[C@H]2c2ccccc2Cl)[C@H]2C(=O)N(Cc3ccccc3)C(=O)[C@H]2C1
    -3	0.0%	-6	-2.9	-6	27
Cc1nc(N2CCN(c3ccccn3)CC2)c2c(C)c(C(=O)Nc3ccc(F)cc3Cl)sc2n1
    -13	2.7%	-20	-2.4	·	97*
CCOc1ccc2[nH]c(=O)c(CN(Cc3cccs3)C(CC)c3nnnn3C(C)(C)CC)cc2c1 (stereo not given)
    2	2.3%	-7	-0.7	7	0.7
CC[C@H]1OC(=O)[C@H](C)[C@@H](O[C@H]2C[C@@](C)(OC)[C@@H](O)[C@H](C)O2)[C@H](C)[C@@H](O[C@@H]2O[C@H](C)C[C@H](N(C)C)[C@H]2O)[C@](C)(O)C[C@@H](C)[C@@H]2N[C@@H](COCCOC)O[C@H]([C@H]2C)[C@]1(C)O
    2	-0.4%	-2	-3.5	0	0.0
CCOc1ccc(-n2c(SCC(=O)NC3CCCCC3)nc3c([nH]c4ccccc43)c2=O)cc1
    ·	-0.4%	34	·	·	2.0
CCOC(=O)NC(=S)Nc1ccc(OC)cc1
    0	3.4%	13	-6.8	11	-0.5
CCOC(=O)C1CCCN(Cc2cc(=O)oc3cc(C)c(C(C)C)cc23)C1 (stereo not given)
    3	3.4%	0	3.1	35	-0.5
CN=c1scc(-c2ccccc2F)n1/N=C(\C)c1cccnc1
    -24	1.4%	19	-4.0	?	3.9
CCN1CCN(CCCNC(=O)C2CCN(c3nnc(-n4cccc4)s3)CC2)CC1
    1	1.5%	20	-5.1	-8	0.2
[O-]C(=C(C(=S)Nc1cccc2ccccc12)[n+]1ccccc1)c1ccc2c(c1)OCCO2
    -13	0.4%	-9	-0.9	-24	-0.9
O=C1/C(=C/c2ccccc2)N=C(N2CCOCC2)N1c1cccc(Cl)c1
    59	2.2%	-4	-4.9	31	0.1
O=C(NCC(c1ccco1)N1CCCC1)c1cc2ccccc2s1 (stereo not given)
    -5	-0.4%	-17	6.9	-10	4.2
O=C(Cc1cccs1)N[C@@H]1c2ccccc2CC[C@@H]1OCc1ccccc1
    2	8.2%	17	-3.9	8	3.4
CC1(C)CC(=O)CC2(C1)NCC(c1ccccc1)c1c2[nH]c2ccccc12 (stereo not given)
    -5	1.8%	2	-0.3	-3	0.4
O=C(CCc1nc(-c2ccccc2)no1)Nc1cc(C(F)(F)F)ccc1Cl
    4	16%	4	5.6	9	-0.6

Whole records, quoted from the list. Screens in order: Six1-Eya2 blk | PINK1 modulator | TRPML1 blocker | D2 agonist | CtBP-E1A inh | TRPML1 agonist
Entry for CCOc1ccc2[nH]c(=O)c(CN(Cc3cccs3)C(CC)c3nnnn3C(C)(C)CC)cc2c1 (stereo not given) : 2 | 2.3% | -7 | -0.7 | 7 | 0.7
Entry for CCN1CCN(CCCNC(=O)C2CCN(c3nnc(-n4cccc4)s3)CC2)CC1 : 1 | 1.5% | 20 | -5.1 | -8 | 0.2
Entry for CC(=O)Oc1ccc(C2=Cc3ccc(OC(C)=O)cc3OC2C)cc1 (stereo not given) : -7 | -2.9% | 4 | 8.2 | -6 | 0.4
Entry for CCn1c(N)c(C(=O)N2CCOCC2)sc1=S : 1 | -2.2% | 38 | -4.3 | 4 | -0.1
Entry for CN=c1scc(-c2ccccc2F)n1/N=C(\C)c1cccnc1 : -24 | 1.4% | 19 | -4.0 | ? | 3.9

More records follow:
Values run as follows: Six1-Eya2 blk	PINK1 modulator	TRPML1 blocker	D2 agonist	CtBP-E1A inh	TRPML1 agonist
O=C(CNC(=O)c1ccccc1)Oc1ccc([N+](=O)[O-])cc1
    -4	-0.4%	19	-8.0	-10	0.1
Cc1ccccc1NC(=O)CN1C(=O)NC2(CCCCCCC2)C1=O
    0	0.6%	-5	-5.6	12	0.3
CCOC(=O)C1CCCN(C(=O)c2cc(-c3ccc(C)cc3)on2)C1 (stereo not given)
    3	·	-7	2.3	8	1.0
C[C@@H]1CN([C@H](C)CO)C(=O)c2cc(Br)cnc2O[C@@H]1CN(C)C(=O)C1CCOCC1
    -1	1.5%	-15	-3.1	-10	0.2
Cc1cc(N/N=C/c2ccccc2)nc(N)n1
    1	0.1%	·	-4.4	-11	·
O=[N+]([O-])c1ccc(OCCO)nc1
    1	-1.1%	-13	-3.1	0	0.6
CN1CCN(CCC(=O)Nc2ccc(C3CCCC3)cc2)CC1
    5	14%	11	3.0	0	3.2
CC(NCC(=O)NC(=O)NC1CCCC1)c1ccc(Cl)cc1Cl (stereo not given)
    0	9.0%	18	2.2	3	-0.4
CCOC(=O)COc1ccc(S(=O)(=O)NCc2ccco2)cc1
    -1	?	-13	-0.9	0	0.6
CCCCCc1ccc(C(=O)CCC(=O)OCC(=O)N(CC)c2c(N)n(Cc3ccccc3)c(=O)[nH]c2=O)cc1
    -5	-1.2%	14	-2.6	0	-0.1
CN(C(=O)c1ccc(NC(=O)Cc2cccc(NC(=O)C3CCCN(S(=O)(=O)c4cccc([N+](=O)[O-])c4)C3)c2)cc1)C1CC1 (stereo not given)
    -5	0.7%	-15	4.7	-5	-0.3
CC(NC(=O)OCc1ccccc1)C(=O)NCC(=O)NC(Cc1ccc(OC(C)(C)C)cc1)C(=O)OC(C)(C)C (stereo not given)
    -4	-1.0%	-15	-1.4	8	-0.5
COC(=O)c1sc2cccc(F)c2c1S(=O)(=O)Nc1ccc(C)cc1Cl
    ·	1.6%	2	·	·	0.3
CC1C(=O)N(Cc2cn(Cc3ccco3)nn2)CCS(=O)(=O)N1Cc1ccc(-c2ccc(Cl)cc2)cc1 (stereo not given)
    -3	2.0%	-8	2.2	0	0.0
Cc1ccc(F)cc1NCC(=O)Nc1ccc(Cl)cc1F
    7	9.5%	-8	2.5	12	1.6
COc1ccc(N2C(=O)CC(N3CCC(c4nc5ccccc5[nH]4)CC3)C2=O)cc1 (stereo not given)
    -1	0.1%	15	1.4	1	-0.1
Cc1ccc(C(=O)Nc2ccc(S(=O)(=O)N3CCN(C)CC3)cc2)o1
    -5	5.2%[38.3 µM]	4	-1.6	-2	0.8
CCC(=O)Nc1sc2c(c1C(N)=O)CCN(Cc1ccccc1)C2
    -1	-0.4%	-6	-4.7	6	9.1
CC1CN(S(=O)(=O)c2ccc(C(=O)N(CCCN(C)C)c3nc4cc5c(cc4s3)OCCO5)cc2)CC(C)O1 (stereo not given)
    -8	-0.6%	22	0.8	0	0.5
COc1ccc(S(=O)(=O)N2CCOCC2)cc1NC(=O)c1cc2c(s1)CCCC2
    3	6.9%	-14	5.3	-1	1.8
COc1ccc([C@H]2/C=C\CN(C(=O)C3CCCC3)[C@@H](C)C(=O)N2Cc2ccc(F)cc2)cc1
    -6	4.2%	12	-1.6	0	1.5
O=c1c(S(=O)(=O)c2ccc(Cl)cc2)cn(Cc2cccc(F)c2)c2ccc(F)cc12
    0	2.7%	4	-4.5	-1	0.5
CN1C(=O)[C@H](Cc2ccc([N+](=O)[O-])cc2)NC1=S
    4	-0.2%	3	-11	8	-0.3
CC(O)c1nc2ccccc2n1CCCOc1ccccc1 (stereo not given)
    4	2.6%	-12	2.1	0	0.6
